Bioassay records: PubChem BioAssay, National Center for Advancing Translational Sciences (NCATS)
PINK1 modulator = A Quantitative High throughput Screen to Identify Chemical Modulators of PINK1 Expression. PINK1 immunofluorescence, high-content cytometry, 24 h. Potency, µM (top dose mostly 76.6 µM), for inactives: at the highest dose activation (PINK1 increase), most hits filed as activators. actives 0.2% (n = 410,000). AID 624263, 2012; active = well fitted activation curve with a large enough effect; inconclusive = small, poorly fitted or top-dose-only effect; inactive = flat fitted curve, though single readings scatter; cell line not stated here;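 further: potency means the concentration at half of the fitted maximal effect; % of control where 0% means no effect; nearly all actives have a fitted effect of over 65% in size; a mitochondrial uncoupler was the plate control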
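Decision-based qHTS: stable cells, 24 h exposure to five compound concentrations, CCCP as control. Fixed cells stained for PINK1 plus nuclear, mitochondrial and cell markers, cytometer read.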
D2 PAM = Beta-Arrestin HTS for Positive Allosteric Modulators of the Human D2 Dopamine Receptor: Potentiators | DiscoveRx D2 beta-arrestin cells, luminescence, 90 min; 100% = 57 uM dopamine signal | actives 0.23% (n = 360,000) | D(2) dopamine receptor (Homo sapiens), P14416 | potentiation, % (no concentration beside the values); active = potentiation of 50% or more; inconclusive = 30% to 50%; inactive = 30% or less;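 further: compound concentration not given in the record; tested on top of an EC20 dose of dopamine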
Target sequence (P14416 whole entry, looked up): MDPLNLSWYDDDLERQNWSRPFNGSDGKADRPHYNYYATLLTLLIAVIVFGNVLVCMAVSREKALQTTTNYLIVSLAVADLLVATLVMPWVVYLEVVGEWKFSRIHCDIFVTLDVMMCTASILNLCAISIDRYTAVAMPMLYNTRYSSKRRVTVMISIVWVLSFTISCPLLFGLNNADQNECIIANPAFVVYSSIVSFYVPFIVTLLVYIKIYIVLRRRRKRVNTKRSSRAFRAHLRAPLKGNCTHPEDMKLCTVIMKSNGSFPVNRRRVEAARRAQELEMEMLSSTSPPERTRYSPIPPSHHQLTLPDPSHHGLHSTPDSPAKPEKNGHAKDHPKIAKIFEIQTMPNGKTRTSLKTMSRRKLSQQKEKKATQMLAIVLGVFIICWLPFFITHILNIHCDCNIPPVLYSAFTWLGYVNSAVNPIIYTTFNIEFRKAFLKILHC
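PathHunter D2 cells, attached overnight at 37 deg C, received compound in DMSO plus dopamine at EC20 (50 nM final) for 90 min at 37 deg C. Beta-arrestin recruitment was read as luminescence after 1 h with detection reagent at ambient temperature.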
TRPML1 ag = qHTS for Agonists of the Human Mucolipin Transient Receptor Potential 1 (TRPML1); Mucolipin-1 (Homo sapiens), Q9GZU1; TRPML1-expressing cells, Ca2+ dye fluorescence, FDSS; host cell line not named in the record; reference of the full effect not given here; activation, % (no concentration beside the values); actives 0.12% (n = 410,000); AID 624414, 2012; in the data active = activation above about 50%; inconclusive = about 30% to 50%; inactive = below about 30%; further: 0% is about no effect; the text of the record puts the active cut at 80%
Target sequence (Q9GZU1 whole entry, looked up): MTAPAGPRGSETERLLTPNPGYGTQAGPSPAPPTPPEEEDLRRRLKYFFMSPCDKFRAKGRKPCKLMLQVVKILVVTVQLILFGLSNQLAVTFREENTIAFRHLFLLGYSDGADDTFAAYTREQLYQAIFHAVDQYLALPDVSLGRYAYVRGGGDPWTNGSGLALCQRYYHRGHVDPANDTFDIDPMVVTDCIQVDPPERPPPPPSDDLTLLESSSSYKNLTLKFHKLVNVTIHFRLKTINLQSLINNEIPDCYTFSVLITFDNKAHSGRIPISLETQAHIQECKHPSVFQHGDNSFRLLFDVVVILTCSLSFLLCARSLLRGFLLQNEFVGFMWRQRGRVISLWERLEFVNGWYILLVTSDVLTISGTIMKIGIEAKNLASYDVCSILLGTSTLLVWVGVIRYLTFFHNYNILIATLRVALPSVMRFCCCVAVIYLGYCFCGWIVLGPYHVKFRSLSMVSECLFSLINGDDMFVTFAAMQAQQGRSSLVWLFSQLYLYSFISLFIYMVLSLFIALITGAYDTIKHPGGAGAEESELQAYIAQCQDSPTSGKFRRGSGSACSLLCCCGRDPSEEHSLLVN
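Calcium fluorescence on an FDSS kinetic reader gave the read-out. Tet-induced TRPML1-DL cells were plated overnight, dye-loaded (Ca8 with quencher, 45-90 min, room temperature, dark), then read 110 s after compound addition, and again 110 s after 4uM final 54-4 (EC80).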
D2 ag = Beta-Arrestin HTS for Positive Allosteric Modulators of the Human D2 Dopamine Receptor: Agonists | D(2) dopamine receptor (Homo sapiens), P14416 | DiscoveRx PathHunter D2 beta-arrestin, luminescence, 90 min; 100% = 57 uM dopamine signal | activation, % (concentration not given with the values) | actives 0.084% (n = 360,000); in the data active = activation above about 40%; inconclusive = about 15% to 40%; inactive = below about 15%; further: compound concentration not given in the record; the text of the record calls up to 30% inactive
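DiscoveRx PathHunter D2 beta-arrestin cells (2,100/well) attached overnight, then compound-stimulated 90 min at 37 C in HBSS/10 mM HEPES/0.1% Tween-20 buffer; beta-galactosidase complementation read by luminescence after 1 h at ambient temperature. Dopamine 57 uM final (EC100) as control.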
Six1-Eya2 inh = qHTS Assay for Inhibitors of the Six1/Eya2 Interaction; Homeobox protein SIX1 (Homo sapiens) + Protein phosphatase EYA2 (Homo sapiens), …; AlphaScreen GST-Six1/His-Eya2 binding, biochemical; active compounds read low; control for the full effect not named in the record; activity change, % (no concentration beside the values); actives 0.56% (n = 360,000); AID 651725, 2012; in the data active = activity change below about -65%; inconclusive = about -30% to -65%; inactive = above about -30%; further: on the % scale 0 is the no-effect control and ±100 the full control effect
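Compounds are tested against tagged Six1 and Eya2 proteins bridged by glutathione donor and nickel acceptor beads; after a one-hour incubation at 37 °C without light, AlphaScreen emission is recorded.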
TRPML1 blocker = qHTS for Inhibitors of the Human Mucolipin Transient Receptor Potential 1 (TRPML1). Mucolipin-1 (Homo sapiens), Q9GZU1. TRPML1-inducible cells, Ca2+ dye fluorescence, FDSS; active compounds read low; inhibition of EC80 agonist-evoked calcium signal. activity change, negative = inhibition, % (test concentration not listed). actives 0.02% (n = 390,000); in the data active means activity change below about -50%; inconclusive means about -30% to -50%; inactive means above about -30%;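 further: stimulus is agonist 54-4 at its EC80 concentration; on the % scale 0 is the no-effect control and ±100 the full control effect; compound concentration not given in the record; the text of the record puts the active cut at -80%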
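Calcium fluorescence in TRPML1-DL cells induced overnight with Tet: a 110 s read after compound pin addition, then a 110 s antagonist read after challenge with 54-4 at 4 uM final (EC80).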
Numbers without * were called inactive; ? = inconclusive; / = not tested or not shown; & = joins results of further samples; [ ] = dose if it differs, or a comment. Some of the compounds tested; the hit share may differ from the screen's.

Compound,PINK1 modulator,D2 PAM,TRPML1 ag,D2 ag,Six1-Eya2 inh,TRPML1 blocker
Cc1ccc(-c2cc(C(=O)N3CCC4(CC3)OCCO4)no2)cc1,-0.4%,-19,-1.0,1.3,7,-5
COc1ccc2nc3oc(C(=O)N4CCC5(CC4)OCCO5)cc3cc2c1,-0.9%,-2,-0.3,-2.6,-19,24
COC(=O)C1=C(c2ccc(F)cc2F)C[C@@H]2CC[C@H]1N2C(=O)NCCOc1ccc(OC)cc1,-1.1%,-10,1.5,-1.5,7,-8
C=CCN1C(=O)c2ccccc2Sc2ccc(C(=O)N3CCC4(CC3)OCCO4)cc21,-1.9%[38.3 µM],-10,-0.2,-2.2,4,15
Fc1cccc(F)c1CN1CCN(c2ccc(Cl)cc2)CC1,?,-14,-1.6,-1.1,-3,32
COc1ccc(CCC(=O)NCCc2cnc[nH]2)cc1,0.2%,-5,/,-5.4,8,/
COc1ccc(S(=O)(=O)N2CCOCC2)cc1NC(=O)COC(=O)Cc1ccccc1,-0.3%,-4,1.0,1.4,1,0
COc1cccc(N2C(=O)NC(=O)/C(=C\c3cn(C)c4ccccc34)C2=O)c1,40µM*,-10,0.3,-3.0,18,-8
COc1ccccc1OCC(=O)N1CCN(Cc2ccc3c(c2)OCO3)CC1,-0.9%,-6,0.4,-3.2,-1,8
O=C1NC(=S)N(c2ccc(F)cc2)C(=O)/C1=C\c1ccoc1,0.6%,13,1.2,-3.8,-72*,-13
N#CC1c2ccccc2-n2nncc2CN1S(=O)(=O)c1ccc(Cl)cc1 (stereo not given),-0.6%,-4,1.4,-0.8,6,-10
O=C(O)C(Cc1cnc[nH]1)NS(=O)(=O)c1ccc(Br)cc1 (stereo not given),1.8%,-1,-0.3,-4.4,11,12
COc1ccc2[nH]cc(CCN(C)C)c2c1,1.2%,-13,0.3,6.1,-4,16
COP(=O)(Cc1ccc(C#N)o1)OC,1.8%,-1,0.5,-0.9,2,7
O=C(Nc1ccon1)c1cccn(Cc2ccccc2)c1=O,-0.4%,/,-1.0,/,/,46
OC(c1ccncc1)(c1ccc(F)cc1)c1ccc(F)cc1,2.6%,5,1.8,-0.5,6,0
CC/C(=N\Nc1cccc2ccccc12)c1c(O)[nH]c(=O)[nH]c1=O,0.0%,55*,0.2,/,-20,0
C=CCn1c(O)c(/C=C/C=Nc2ccccc2)c(=O)[nH]c1=O,7.0%,-15,2.5,-3.2,5,-13
CCCCn1c(=O)c(C(=O)Nc2ccccc2)c(O)c2ccccc21,?,4,-0.9,-2.8,1,-8
COc1ccc(NP2(=O)NCCCN2)cc1,0.6%,-5,0.0,7.5,1,1
OC(Cn1c2ccccc2c2ccccc21)C[n+]1ccccc1 (stereo not given),-1.0%,-7,0.1,-1.0,5,-4
C[C@]12CCC3C(CC[C@H]4C[C@@H](O)CC[C@]34C)C1C/C(=N/O)[C@@H]2O (stereo not given in full),-3.8%,-1,2.6,1.3,-6,-7
CCN1CCN(Cc2ccc(C)cc2)CC1,-1.9%[38.3 µM],-15,-0.5,-1.6,1,1
Cc1ccn2nc(S(=O)(=O)Nc3c(F)cccc3F)nc2n1,0.2%,5,-0.7,0.9,-1,11
O=C(c1ccccc1[N+](=O)[O-])N1CCC2(CC1)OCCO2,-1.3%,-8,0.1,8.8,0,0
CCOc1cc(C2C(C#N)=C(N)Oc3c2c(=O)oc2ccccc32)ccc1OC(=O)c1cccs1 (stereo not given),6.7%,-10,0.3,-2.5,-14,16
COc1cccc(-c2nc3ccc(N4CCN(C)CC4)cc3[nH]2)c1,3.1%,-12,-0.2,-2.9,-1,-7
CCOC(=O)C1=C(N)Oc2cc(C)oc(=O)c2C12C(=O)N1c3c(cccc32)C(C)=CC1(C)C (stereo not given),12%[38.3 µM],5,0.5,-0.2,-1,5
COc1ccccc1CC(=O)Nc1ccc2c(c1)OC1(CCCC1)O2,?,0,-0.1,-1.4,-20,2
CC(C)CCN1CCN(Cc2c(F)cccc2Cl)CC1CCO (stereo not given),1.5%,-8,-0.3,-5.8,26,3
Cc1nn(Cc2ccc(Cl)cc2Cl)c(Cl)c1C(=O)Nc1ccc(OC(F)F)cc1,8.3%,-15,1.4,3.7,3,18
CC(=NCc1ccc2c(c1)OCO2)c1c(O)n(-c2ccccc2)c(=O)[nH]c1=O,8.2%,-2,-0.8,-4.7,-13,5
O=C(Nc1ccc2c(c1)OCO2)c1cccn(Cc2ccc(F)cc2)c1=O,1.9%,/,-0.9,/,/,-17
O=C(c1ccc2c(c1)ncn2C1CCCCCC1)N1CCC2(CC1)OCCO2,7.3%,-6,-0.3,-2.9,-6,-4
CCCOc1ccc(C2SCC(=O)Nc3c2c(C)nn3-c2cccc(C)c2)cc1OC (stereo not given),4.7%,/,3.5,/,/,25
CCNC(=S)N1CCn2cccc2C1c1cccnc1 (stereo not given),-1.9%,-3,-0.2,-2.8,-3,8
COC(=O)NC(=C(Cl)Cl)P(=O)(c1ccccc1)c1ccccc1,1.4%,-19,0.0,-4.2,0,-8
COC(=O)C1=C(c2c(C)noc2C)C[C@@H]2CC[C@H]1N2C(=O)NCCOc1ccc(OC)cc1,-0.3%,-4,0.1,-8.2,10,-4
CCC(=O)N1N=C2C3CCN(CC3)C2C1c1ccc(C)cc1 (stereo not given),1.3%,-5,-0.5,-5.0,2,-4
COc1cc2nc(CN3CC=C(c4ccccc4)CC3)[nH]c(=O)c2cc1OC,?,-3,1.0,3.2,-5,5
CCOP(=S)(OCC)SCC(=O)NC(C(=O)O)C(C)C (stereo not given),0.9%,6,0.8,-0.4,2,-7
CC(=Nc1c(C)n(C)n(-c2ccccc2)c1=O)c1c(O)n(Cc2ccccc2)c(=O)[nH]c1=O,-0.7%,-13,0.9,-0.2,18,13
COc1ccc(C2SCC(=O)Nc3c2c(C)nn3-c2ccccc2)cc1OC (stereo not given),/,-22,0.1,-2.8,-2,-9
O=c1[nH]c(=O)n(CCC2=CCCCC2)c(O)c1C=NCc1cccnc1,-0.4%,1,0.1,-0.4,2,27
CCN(CC)P(=O)(NC(=O)C(Cl)(Cl)Cl)N(CC)CC.[Cl-].[Cl-].[Cl-].[Nd+3],-3.0%&-0.4%,-5&-2,3.4&14,1.2&0.0,-4&7,20&-10
C#CCNc1ccncc1S(=O)(=O)NC(=O)NC(C)C,4.2%,-9,-0.7,1.4,4,5
NC(N)=N/N=C/c1ccc(N(c2ccccc2)c2ccccc2)cc1,-1.5%,-3,-0.6,8.8,50,2
O=C1C2CCCN2C(c2ccncc2)N1c1ccc(Cl)c(Cl)c1 (stereo not given),-2.8%,-10,-0.7,-2.8,6,3
O=c1c2ccccc2nc(-c2ccco2)n1-c1ccncc1,0.1%,-2,-0.3,0.5,2,-2
CSCCC(c1nnnn1C(C)(C)C)N1CCC(n2c(=O)[nH]c3ccccc32)CC1 (stereo not given),-1.1%,5,0.3,10,6,/

Additional structures:
Compound,PINK1 modulator,D2 PAM,TRPML1 ag,D2 ag,Six1-Eya2 inh,TRPML1 blocker
Cc1ccc(-c2nc3ccccc3c(=O)n2-c2ccc(O)cc2)cc1,0.2%,2,1.5,-4.7,-3,-8
CCCCCn1c(=O)c(C(=O)NC(C)c2ccccc2)c(O)c2ccccc21 (stereo not given),26%,12,-0.5,-0.9,11,-11
CC1CCC(N2CCN(C(=O)COc3ccccc3)CC2)CC1 (stereo not given),1.2%,-20,-0.5,-4.3,-2,9
COc1cc(OC)c2c(c1)O[C@@H](c1ccc(OC)c(OC)c1)[C@H](O)C2,-2.0%,-20,1.4,-4.6,14,-17
Cc1cc(OCC(=O)NCc2ccncc2)c2c3c(c(=O)oc2c1)CCCC3,-0.6%,9,-0.3,2.4,-3,-7
CCC(=Nc1ccc2c(c1)CCC2)c1c(O)n(-c2ccc(OC)cc2)c(=O)[nH]c1=O,10%,-4,-0.7,0.5,-17,-2
C[C@]12CCC3C(CC[C@H]4C[C@H](N)CC[C@]34C)C1CC[C@H]2O (stereo not given in full),1.2%,0,-0.1,4.2,0,9
COc1ccc(CCNCc2ccccc2)cc1,1.0%,-14,1.6,1.8,10,28
CC(C)c1ccc(N2C(=O)NC(=O)/C(=C/c3cnc(-c4ccccc4)nc3)C2=O)cc1,-0.4%,-7,0.2,-2.6,0,-4
CCC1C(c2ccccc2)NC(c2ccccc2)CC1(O)c1ccc(F)cc1 (stereo not given),-0.4%,-19,0.1,-3.5,-2,-3
O=C(c1ccc(Cl)cc1)C1CCCN(C2CCSCC2)C1 (stereo not given),1.3%,-21,0.3,-2.0,4,34
Cc1cc(C)[n+](C2C3CC4CC(C3)CC2C4)o1 (stereo not given),0.1%,-3,-0.1,-5.2,2,8
O=C(CN1C(=O)CN=C(c2ccccc2Cl)c2cc(Cl)ccc21)NCc1ccco1,1.7%,-11,-0.2,/,-10,-13
Cc1cc(/C=C2/C(=O)NC(=O)N(Cc3ccco3)C2=O)c(C)n1-c1ccc(C(=O)O)cc1,5.2%,-8,0.5,-1.6,-23,23
CNC(=O)Oc1ccccc1OC(C)C,0.7%&-0.5%,-6,0.2,-4.3,16,0
CSc1ncc(/C=C2/C(=O)NC(=O)N(c3ccc(C)cc3)C2=O)cn1,1.2%,2,0.2,5.3,0,-7
CCCCCCC(=O)N/N=C/c1c(O)n(C2CC2)c(=S)[nH]c1=O,1.9%,-12,-0.2,-8.0,?,23
CN(C)C1(CNC(=O)c2ccc(NS(=O)(=O)c3ccc(Cl)c(Cl)c3)cc2)CCCCC1,0.5%,-3,-0.4,-0.6,8,22

Single records, as listed above:
CN(C)C1(CNC(=O)c2ccc(NS(=O)(=O)c3ccc(Cl)c(Cl)c3)cc2)CCCCC1 in the list: PINK1 modulator = 0.5%; D2 PAM = -3; TRPML1 ag = -0.4; D2 ag = -0.6; Six1-Eya2 inh = 8; TRPML1 blocker = 22
Cc1cc(C)[n+](C2C3CC4CC(C3)CC2C4)o1 (stereo not given) in the list: PINK1 modulator = 0.1%; D2 PAM = -3; TRPML1 ag = -0.1; D2 ag = -5.2; Six1-Eya2 inh = 2; TRPML1 blocker = 8
